DUX4 inh – inhibitors of DUX4-driven ZSCAN4 reporter expression, primary screen, 293T cells, Gaussia and Italica luciferase. 293T-iDUX4 ZSCAN4-Gaussia luciferase reporter, 24 h; active compounds read low. activity change, negative = inhibition, % (test concentration not listed). 37,000 tested, 0.8% active. AID 1224904, 2016;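 active = -10% or lower and over 25 points stronger than a control reporter; inconclusive = -10% or lower with a smaller gap; inactive = above -10%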;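 note: 0% = median of neutral control wells and -100% = median of positive control wells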
DUX4 inh difference – second read-out of DUX4 inh, no call of its own (marks repeat the call); Gaussia minus Italica difference, %; measured here: selective DUX4 reporter inhibition;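 worked out from the two reporters; negative = selective loss of the DUX4 reporter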
DUX4 inh control – further read-out of DUX4 inh, marked with its call; activity change, negative = inhibition, %; measured here: Italica tet-on control reporter;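 0 = neutral control and -100 = positive control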
* hit, by the source's call; ? = inconclusive; nt = not tested or not shown; & = joins results of further samples.

Values run as follows: DUX4 inh, DUX4 inh difference, DUX4 inh control
CCC(=O)N1[C@@H]2CN(S(=O)(=O)c3ccc(F)cc3)c3ccccc3[C@@H]2[C@@H]1CO
    2, 1, 0.4
CO[C@H]1CN(C)C(=O)c2cc(NC(=O)c3cnccn3)ccc2OC[C@H](C)NC[C@H]1C
    4, -1, 4.8
O=C1NCCOCc2cn(nn2)CC[C@@H]1Cc1ccc(F)cc1
    7, 7, 0.2
COCCNC(=O)C[C@H]1C[C@H]2c3cc(NC(=O)c4ccc5c(c4)OCO5)ccc3O[C@H]2[C@H](CO)O1
    1, 3, -1.8
Cc1cccc(S(=O)(=O)N2[C@@H]3CNC[C@H]2C3c2ccc(-c3cccnc3)cc2)c1 (stereo partly specified)
    0&11, -12&4, 12&7.8
COc1ccc2c3c(n(C)c2c1)[C@H](CO)N(Cc1ccccc1F)CC31CCN(C(C)=O)CC1
    1, 11, -10
Cc1noc(C)c1NC(=O)Nc1ccc2c(c1)C(=O)N([C@H](C)CO)C[C@H](C)[C@H](CN(C)C(=O)NC1CCCCC1)OCCCC[C@@H](C)O2
    -2, 1, -3.1
O=C(C1CCCC1)N1CC2(C1)[C@H](c1ccccc1)[C@@H](CO)N2Cc1ccccc1F
    -45*, -35*, -10*
CCN1[C@@H]2c3ccc(-c4ccc(C(=O)N(C)C)cc4)c(=O)n3C[C@@H]2[C@@H](CO)[C@@H]1C(=O)NCCOC
    1, -7, 8.1
C[C@@H]1CN([C@H](C)CO)C(=O)CCCn2nncc2CO[C@@H]1CN(C)Cc1ccc(Oc2ccccc2)cc1
    ?, nt, nt
O=C(C1CCCC1)N1C[C@H]2[C@@H](c3ccccc31)[C@@H](CO)N2C(=O)c1cccnc1
    -4, -4, 0.2
Cn1cnc(CCNC(=O)C[C@@H]2CC[C@@H]3[C@H](COC[C@H](O)CN3C(=O)C3CCCC3)O2)c1
    6, 3, 3.3
COCCNC(=O)C[C@@H]1CC[C@H]2[C@@H](COc3ccc(NC(=O)c4cc(C)on4)cc3C(=O)N2C)O1
    0, 0, 0.0
C[C@@H]1CN([C@H](C)CO)S(=O)(=O)c2ccc(C#CC3(O)CCCC3)cc2O[C@@H]1CN(C)C(=O)Nc1cccc(F)c1
    -4, -5, 1.1
COc1cccc(-c2ccc3c(c2)O[C@@H](CN(C)Cc2cccnc2)[C@H](C)CN([C@@H](C)CO)S3(=O)=O)c1
    -3, -3, 0.0
O=C(Cc1ccccc1)N1C[C@@H]2[C@H](c3ccccc31)[C@@H](CO)N2C(=O)c1cccc(F)c1
    -1, 1, -1.8
CCCC(=O)Nc1ccc2c(c1)OC[C@@H](C)N(CC1CCOCC1)C[C@H](C)[C@H](OC)CN(C)C2=O
    -2, -8, 6.0
CO[C@@H]1CN(C)C(=O)c2cc(NS(C)(=O)=O)ccc2OC[C@H](C)N(C(=O)C2CCOCC2)C[C@@H]1C
    3, 3, 0.5
COCC(=O)N(C[C@@H]1N[C@@H](CO)[C@@H]1c1ccc(-c2ccccc2)cc1)C(C)C
    -5, -1, -3.9
CC(C)(C)[S@](=O)N1Cc2cc(C(=O)N[C@H]3CCN(Cc4ccccc4)C3)nc(-c3cccc(-c4ccncc4)c3)c2[C@@H]1CCO
    -4, -2, -2.5
C[C@H]1CN([C@@H](C)CO)C(=O)CCCn2cc(nn2)CO[C@H]1CN(C)CC1CCCCC1
    -2, 6, -7.6
O=C(C1CCCC1)N1CC2(C1)[C@H](c1ccccc1)[C@@H](CO)N2C(=O)NC1CCCC1
    -5, -9, 4.3
CC=Cc1ccc2n(c1=O)C[C@H]1[C@H](CO)[C@@H](C(=O)Nc3nccs3)N(C(=O)CC)[C@@H]21 (mixture of isomers)
    -3, -4, 0.8
CO[C@H](CN(C)S(=O)(=O)c1ccc(F)cc1)[C@@H](C)CN(Cc1ccccc1Cl)[C@H](C)CO
    0, 5, -5.4
C[C@H](CO)N1C[C@H](C)[C@@H](CN(C)C(=O)[C@@H](Cc2ccccc2)N(C)C)OCc2ccccc2-c2c(n(C)c3ccccc23)C1=O
    3, -6, 8.5
Cc1ccccc1S(=O)(=O)N1[C@H](C#N)[C@H](c2ccc(C#CC3CCCCC3)cc2)[C@@H]1CO
    4, 1, 3.2
CN1[C@@H]2c3ccc(-c4cccnc4)c(=O)n3C[C@H]1[C@H](CO)[C@H]2C(=O)NCCc1ccccc1
    1, -6, 6.4
CNC[C@@H]1Oc2cc(-c3ccccc3OC)ccc2S(=O)(=O)N([C@@H](C)CO)C[C@H]1C
    -2, -3, 1.3
C[C@@H](NC(=O)C[C@@H]1CC[C@H](NC(=O)Cc2ccccn2)[C@H](CO)O1)c1ccccc1
    ?, nt, nt
C[C@@H]1CN([C@@H](C)CO)C(=O)c2c(c3ccccc3n2C)-c2ccccc2CO[C@@H]1CN(C)Cc1cccnc1
    -4, -3, -1.5
C[C@@H]1CN([C@H](C)CO)C(=O)c2cc(NS(=O)(=O)c3ccccc3)ccc2O[C@@H](C)CCCCO[C@H]1CN(C)C(=O)C1CCCCC1
    5, 1, 3.8
C[C@@H]1CCCCO[C@@H](CN(C)C(=O)Nc2ccc3c(c2)OCO3)[C@@H](C)CN([C@@H](C)CO)C(=O)c2cc(NC(=O)C3CCCCC3)ccc2O1
    -2, -6, 4.0
N#C[C@@H]1[C@@H](c2ccccc2)[C@H](CO)N1S(=O)(=O)c1ccc(F)cc1
    1, -1, 2.8
C[C@H]1CN([C@@H](C)CO)C(=O)c2cc(C3=CCCCC3)cnc2O[C@H]1CN(C)Cc1ccccc1C(=O)O
    1, 1, -0.6
COc1ccccc1NC(=O)N(C)C[C@@H]1OCc2ccccc2-c2ccccc2C(=O)N([C@@H](C)CO)C[C@@H]1C
    14, 12, 2.6
COc1ccc(C#Cc2cccc(-c3nc(C(=O)NCCCN4CCOCC4)cc4c3[C@@H](CCO)N(S(=O)C(C)(C)C)C4)c2)cc1OC (stereo partly specified)
    ?, nt, nt
CCCNC(=O)C[C@H]1CC[C@@H]2[C@H](COC[C@H](O)CN2C(=O)c2ccc(F)cc2)O1
    9, 6, 3.0
C[C@@H]1CN([C@H](C)CO)C(=O)CCCn2nncc2CO[C@H]1CN(C)Cc1ccncc1
    -4, -4, -0.4
CCCC#Cc1cnc2c(c1)C(=O)N([C@H](C)CO)C[C@@H](C)[C@@H](CN(C)C(=O)Nc1cc(F)ccc1F)O2
    5, 1, 3.5
CS(=O)(=O)N(CC1CCC1)C[C@@H]1N[C@@H](CO)[C@@H]1c1ccccc1
    2, -1, 3.2
N#Cc1ccc(-c2ccc3c(c2)[C@@H]2[C@@H](CCN2S(=O)(=O)c2cccc(F)c2)[C@H](CO)N3)cc1
    ?, nt, nt
CO[C@H]1CC[C@H]2CCN(C)C(=O)CCCN(C)C(=O)c3cccc(C#N)c3OC[C@H]1O2
    -3, -4, 1.9
O=C(C[C@@H]1CC[C@H]2[C@@H](COC[C@@H](O)CN2C(=O)Nc2ccc(Cl)cc2)O1)NC1Cc2ccccc2C1
    3, -7, 10
CCCC#Cc1ccc2c(c1)O[C@@H](CN(C)Cc1ccccn1)[C@H](C)CN([C@H](C)CO)S2(=O)=O
    -2, -1, -0.4
C/C=C/c1ccc([C@H]2[C@@H](CO)N(Cc3cncnc3)C23CN(C(=O)CC)C3)cc1
    2, 0, 2.4
CCCC(=O)Nc1ccc2c(c1)C(=O)N(C)C[C@H](OC)[C@H](C)CN(Cc1ccc(F)cc1)[C@H](C)CO2
    -2, -2, -0.3
CO[C@H]1CN(C)C(=O)c2cc(NC(=O)C3CCCCC3)ccc2OC[C@H](C)N(C)C[C@H]1C
    -6, -3, -2.8
CN1C(=O)c2cc(NS(=O)(=O)c3ccc(Cl)cc3)ccc2OC[C@@H]2O[C@@H](CC(=O)O)CC[C@@H]21
    6, 15, -8.7
C[C@H]1CN([C@@H](C)CO)C(=O)c2c(c3ccccc3n2C)-c2ccccc2CO[C@@H]1CN(C)Cc1ccc(Oc2ccccc2)cc1
    ?, nt, nt
O=C(NCC[C@H]1CC[C@H](NS(=O)(=O)Cc2ccccc2)[C@@H](CO)O1)C1CCCCC1
    4, 1, 3.0
CCC(=O)N1[C@H](C(=O)NCc2ccc(F)cc2)[C@@H](CO)[C@@H]2Cn3c(ccc(C4=CCCCC4)c3=O)[C@@H]21
    3, 9, -5.8
COCC(=O)Nc1ccc2c(c1)C(=O)N(C)[C@H]1CC[C@H](CC(=O)Nc3cn(C)nc3C)O[C@@H]1CO2
    -4, -2, -1.8
O=C(Nc1ccccc1)N1CCCCN2[C@H](CO)[C@H](c3ccc(-c4ccncc4)cc3)[C@@H]2C1
    29, 21, 8.5
O=C(CC1CC1)N1CC2(C1)[C@@H](c1ccccc1)[C@@H](CO)N2C(=O)c1cccnc1
    8, -4, 12
O=C(CN1CCOCC1)N1CCCCN2[C@H](CO)[C@@H](c3ccc(Br)cc3)[C@H]2C1
    30, 19, 10
CNC(=O)C[C@H]1CC[C@@H]2[C@H](COc3ccc(NC(=O)c4ccccc4F)cc3C(=O)N2C)O1
    1, 1, -0.2
CO[C@H]1CC[C@H]2CCOc3ccc(C#N)cc3C(=O)N(C)C[C@@H](C)C(=O)N(C)C[C@H]1O2
    2, 0, 2.2
C/C=C/c1ccc2c(c1)O[C@H](CN(C)C(=O)CN1CCOCC1)[C@@H](C)CN([C@H](C)CO)S2(=O)=O
    -4, -1, -3.3
O=C(CC(F)(F)F)N1C[C@H]2[C@@H](c3ccccc31)[C@H](CO)N2Cc1cccnc1
    4, -2, 5.8
COCC(=O)N(C[C@@H]1N[C@@H](CO)[C@@H]1c1ccc(C2=CCCCC2)cc1)C(C)C
    3, 0, 2.9

Brought forward from above: 3 entries; new compounds follow.
Values run as follows: DUX4 inh, DUX4 inh difference, DUX4 inh control
C/C=C/c1ccc2c(c1)O[C@H](CN(C)C(=O)CN1CCOCC1)[C@@H](C)CN([C@H](C)CO)S2(=O)=O
    -4, -1, -3.3
O=C(CC(F)(F)F)N1C[C@H]2[C@@H](c3ccccc31)[C@H](CO)N2Cc1cccnc1
    4, -2, 5.8
COCC(=O)N(C[C@@H]1N[C@@H](CO)[C@@H]1c1ccc(C2=CCCCC2)cc1)C(C)C
    3, 0, 2.9
Cn1cnc(S(=O)(=O)N2CC[C@H]3[C@H](CO)Nc4ccc(-c5cccc(F)c5)cc4[C@H]32)c1
    7, 6, 0.7
O=C(c1cccnc1)N1CCCCN2[C@H](CO)[C@H](c3ccc(C#Cc4cccnc4)cc3)[C@@H]2C1
    -1, -9, 7.5
O=C([C@H]1[C@H](CO)[C@H]2Cn3c(ccc(-c4ccncc4)c3=O)[C@@H]1N2Cc1cccnc1)N1CCOCC1
    2, -3, 5.3
Cc1cc(C(=O)Nc2ccc3c(c2)C(=O)N(C)[C@@H]2CC[C@H](CC(=O)N[C@H](C)c4ccccc4)O[C@@H]2CO3)no1
    0, -3, 2.9
CN1C(=O)c2cc(NS(C)(=O)=O)ccc2OC[C@H]2O[C@@H](CC(=O)NCc3ccccc3)CC[C@@H]21
    -3, -1, -1.6
N#C[C@H]1[C@H](c2ccc(C#Cc3cccc(F)c3)cc2)[C@@H](CO)N1C(=O)C1CC1
    -1, 0, -0.5
COc1ccc(S(=O)(=O)N(C)C[C@@H]2OCc3ccccc3-c3c(n(C)c4ccccc34)C(=O)N([C@@H](C)CO)C[C@H]2C)cc1
    ?, nt, nt
N#C[C@@H]1[C@H](c2ccccc2-c2cccc(F)c2)[C@H](CO)N1C(=O)CN1CCOCC1
    11, 5, 6.2
COc1ccccc1CNC(=O)C[C@H]1C[C@@H]2c3cc(N(C)C)ccc3O[C@@H]2[C@H](CO)O1
    7, 0, 7.4
CC(C)NC[C@H]1[C@@H](c2ccc(-c3ccccc3)cc2)[C@@H](CO)N1CC1CC1
    4, 0, 3.7
O=C(C[C@@H]1CC[C@H]2[C@@H](COC[C@H](O)CN2C(=O)Nc2cccc(Cl)c2)O1)N1CCCCC1
    2, 4, -2.6
COc1cccc(S(=O)(=O)N2CC[C@@H]3[C@H]2c2cc(-c4ccc(C#N)cc4)ccc2N[C@@H]3CO)c1
    20, 0, 19
N#C[C@H]1[C@@H](c2ccc(-c3ccccc3)cc2)[C@@H](CO)N1C(=O)Cc1ccncc1
    2, -3, 5.5
CO[C@H]1CN(C)C(=O)c2cc(NS(C)(=O)=O)ccc2OC[C@@H](C)N(CCC(F)(F)F)C[C@H]1C
    -3, -1, -1.8
CCCNC(=O)N1[C@H](CO)[C@@H]2c3ccccc3N(C(=O)c3ccccc3)C[C@@H]21
    0, -3, 3.0
COCC(=O)NC[C@H]1[C@@H](c2ccccc2)[C@@H](CO)N1C(=O)c1ccccc1
    -1, -1, 0.1
O=C(Nc1ccccc1F)N1C[C@H]2[C@@H](c3ccccc31)[C@@H](CO)N2C(=O)Cc1cccnc1
    6, 1, 4.9
CS(=O)(=O)Nc1ccc2c(c1)[C@H]1C[C@H](CC(=O)O)O[C@@H](CO)[C@H]1O2
    8, 7, 0.7

Some of the entries so far, bar-delimited.
molecule | DUX4 inh | DUX4 inh difference | DUX4 inh control
CS(=O)(=O)Nc1ccc2c(c1)[C@H]1C[C@H](CC(=O)O)O[C@@H](CO)[C@H]1O2 | 8 | 7 | 0.7
CC(C)NC[C@H]1[C@@H](c2ccc(-c3ccccc3)cc2)[C@@H](CO)N1CC1CC1 | 4 | 0 | 3.7
CN1C(=O)c2cc(NS(C)(=O)=O)ccc2OC[C@H]2O[C@@H](CC(=O)NCc3ccccc3)CC[C@@H]21 | -3 | -1 | -1.6
N#C[C@H]1[C@H](c2ccc(C#Cc3cccc(F)c3)cc2)[C@@H](CO)N1C(=O)C1CC1 | -1 | 0 | -0.5

Screening results: PubChem, Broad Institute

An excerpt; count on the stated rates, not on these rows.
